# Screening results: PubChem, National Center for Advancing Translational Sciences (NCATS)
# Cruzain noTriton: blocks cruzain activity in detergent-free assay | P25779 | purified cruzain, Z-FR-AMC fluorescence, no detergent | Potency, µM, inactives show max response, negative = inhibition, actives largely listed as inhibitors | actives 2.3% (n = 200,000) | AID 1476;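 further: plate controls were enzyme without inhibitor for no effect and buffer without enzyme for full effect; nearly all actives have a fitted effect of over 40% in size; top concentration of the series not given in the record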
# Target sequence (P25779 123-467 limits assumed): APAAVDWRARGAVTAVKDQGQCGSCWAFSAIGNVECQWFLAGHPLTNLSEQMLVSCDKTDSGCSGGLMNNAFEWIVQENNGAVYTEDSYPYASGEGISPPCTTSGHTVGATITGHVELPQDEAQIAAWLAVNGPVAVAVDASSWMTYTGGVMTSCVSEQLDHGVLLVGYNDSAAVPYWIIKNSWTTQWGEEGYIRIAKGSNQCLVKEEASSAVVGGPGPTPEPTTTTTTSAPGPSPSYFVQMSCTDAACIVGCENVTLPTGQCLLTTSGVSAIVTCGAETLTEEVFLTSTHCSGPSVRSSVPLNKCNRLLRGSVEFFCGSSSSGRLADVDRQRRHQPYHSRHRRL
#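 Purified cruzain at 1.5 nM, pre-incubated 15 min with compound at room temperature in 100 mM sodium acetate pH 5.5, 5 mM DTT, 0.00005% Triton X-100. Reaction started with 2 uM Z-FR-AMC; AMC fluorescence increase over 60 s gives rate.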
# SARS PLpro yeast: blocks SARS-CoV papain-like protease in a yeast assay | Potency, µM (titrated, usually from 32.9 µM), for inactives: at the highest dose activity, positive = growth rescue | S. cerevisiae expressing SARS-CoV PLpro, growth rescue; control for the full effect not named in the record | actives 0.19% (n = 330,000); active means well fitted rising curve with a large enough effect; inconclusive means small, poorly fitted or top-dose-only effect; inactive means no such curve, though single readings can be large or run the other way; further: 0% is about no effect; nearly all actives have a fitted effect of over 55% in size; growth read by luminescence after 48 h
# LASV entry inh: blocks Lassa virus binding to or entry into cells; Potency, µM (titrated, usually from 37.9 µM), inactives show top-dose activity change, negative = inhibition, usual class: inhibitors; Lassa virus pseudotype entry inhibition, cell reporter; control for the full effect not named in the record; actives 1.2% (n = 300,000); active means well fitted inhibition curve with a large enough effect; inconclusive means small, poorly fitted or top-dose-only effect, or effect the other way; inactive means flat fitted curve, though single readings scatter; tested in HEK293 cells; further: on the % scale 0 is the no-effect control and ±100 the full control effect; nearly all actives have a fitted effect of over 50% in size; luciferase read-out
# RE007 growth inh: less growth of the S. pombe RE007 Vpr strain; AID 651644; Potency, µM (highest dose often 92.2 µM), for inactives: top-dose activity change, negative = less growth; actives 0.21% (n = 360,000); S. pombe RE007 Vpr strain, BacTiter-Glo ATP luminescence, 24 h; control for the full effect not named in the record; active = well fitted falling curve with a large enough effect; inconclusive = small, poorly fitted or top-dose-only effect; inactive = no such curve, though single readings can be large or run the other way;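 further: on the % scale 0 is the no-effect control and ±100 the full control effect; nearly all actives have a fitted effect of over 50% in size; the assay follows cell death caused by Vpr and the record does not say whether a fall means rescue or toxicity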
#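 Fission yeast RE007 carrying one integrated HIV-1 vpr copy, seeded at OD 0.01 in PMG+AL medium with 23 nL pinned compound. Grown 24 h at 30 degrees; viability read by BacTiter-Glo luminescence after 5 min.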
# MARV entry inh: Marburg virus entry inhibition; Marburg virus pseudotyped entry inhibition, cell reporter; control for the full effect not named in the record; about a third of the inactives were read at about 46 µM; Potency, µM (highest dose often 37.8 µM), without a hit: top-dose activity change, negative = inhibition, usual class: inhibitors; actives 1.8% (n = 300,000); active = well fitted inhibition curve with a large enough effect; inconclusive = small, poorly fitted or top-dose-only effect, or effect the other way; inactive = flat fitted curve, though single readings scatter; tested in HEK293 cells; about a fifth of its hits are not listed in these tables; further: on the % scale 0 is the no-effect control and ±100 the full control effect; luciferase read-out
# Cruzain Triton: inhibitors of Trypanosoma cruzi cruzain with detergent; P25779; Potency, µM, for inactives: max response, negative = inhibition, actives largely listed as inhibitors; purified cruzain, Z-FR-AMC fluorescence, 0.01% Triton; actives 0.43% (n = 200,000); AID 1478;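 further: plate controls were neutral wells for no effect and buffer without enzyme for full effect; nearly all actives have a fitted effect of over 40% in size; top concentration of the series not given in the record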
#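 Cruzain (1.5 nM) preincubated 15 min at RT with compound in 100 mM sodium acetate pH 5.5, 5 mM DTT, 0.01% Triton X-100. Reaction started with 2 uM Z-FR-AMC; AMC fluorescence (ex 360/em 450 nm) change over 60 s gave rate.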
# StopGo reporter: FMDV 2A StopGo reporter, luciferase signal; human cells with a luciferase reporter of 2A StopGo recoding; control for the full effect not named in the record; actives 1.2% (n = 410,000); Potency, µM (top dose mostly 57.9 µM), for the others: top-dose signal change, negative = less light; active = well fitted falling curve with a large enough effect; inconclusive = small, poorly fitted or top-dose-only effect; inactive = no such curve, though single readings can be large or run the other way; tested in HEK293T cells; further: on the % scale 0 is the no-effect control and ±100 the full control effect; nearly all actives have a fitted effect of over 45% in size; luciferase light after 4 h
# NS1 inh: inhibitors of influenza NS1 protein function | S. cerevisiae slowed by influenza A NS1, growth recovery by OD600 | AID 2326 | actives 0.4% (n = 270,000) | Potency, µM (doses to about 46.1 µM), without a hit: top-dose activity, positive = more growth; active means well fitted rising curve with a large enough effect; inconclusive means small, poorly fitted or top-dose-only effect; inactive means no such curve, though single readings can be large or run the other way; further: nearly all actives have a fitted effect of over 50% in size
#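 Read-out: OD600 growth recovery of NS1-expressing budding yeast. Cells grown overnight at 30C in -URA glucose medium, washed, resuspended and diluted 1:100 in 2% galactose assay medium, pH 6.0. Same strain lacking NS1 served as positive control.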
# Starred values were filed as active, the others as inactive; ? = inconclusive; nt = not tested or not shown; & = joins results of further samples; [ ] = remark or other dose. Unless noted, the call rests on the fitted dose curve; in most records, active means well fitted curve in the direction sought with a large enough effect; inconclusive means small, poorly fitted or top-dose-only effect, or another doubt; inactive means no such curve, though single readings can be large; an effect the other way counts as inactive or inconclusive. Potency means the concentration at half of the fitted maximal effect. Rows were taken by chance; about 4.7% have a hit in one of these screens.
SMILES,Cruzain noTriton,SARS PLpro yeast,LASV entry inh,RE007 growth inh,MARV entry inh,Cruzain Triton,StopGo reporter,NS1 inh
C/C(CCN1CCCCc2nc(C)c(C)cc21)=N\OC[C@@H](O)[C@H]1O[C@@H]2OC(C)(C)O[C@@H]2[C@H]1O,-3%,-1%,4%,nt,18%[14.2 µM],-0.8%,nt,-12%
COCCN(CC(=O)NC1CCCCC1)C(=O)c1csnn1,-7%,-2%,7%,-7%,8%,1.9%,-1%,2%
O=C(NC1CCN(Cc2ccccc2)CC1)c1ccc(Cn2c(=S)[nH]c3ccc(N4CCOCC4)cc3c2=O)cc1,nt,0%,?,3%,2.8µM*,nt,20%,nt
CC1CCCCC1NC(=O)COC(=O)COc1ccc(Cl)cc1 (stereo not given),2%,1%,14%,6%,?,-2.8%,16%,2%
COCCn1c(-c2ccsc2)nc2c1c(=O)[nH]c(=O)n2CC(C)C,-1%,1%,-21%,-26%,-8%,4.6%,0%,-7%
COc1ccc(CCNC(=O)CNC(=O)c2nn(-c3ccc(OC)c(OC)c3)c(=O)c3ccccc23)cc1OC,nt,0%,?,7%,?,nt,-13%,-17%
CC(C)n1c(O)c(N=NC(=O)Cc2csc(N3CCOCC3)n2)c2ccccc21,nt,-2%,-5%[46.1 µM],-2%,?,nt,-4%,nt
Cc1cs/c(=N\N=C\c2cccc([N+](=O)[O-])c2)n1Cc1ccco1,3%,14%,-7%,-11%,?,-8.4%,-9%,10%
CC(NC(=O)COC(=O)Cc1cccs1)c1ccc(F)cc1 (stereo not given),nt,nt,2%,-17%,23%,nt,-21%,nt
CN(Cc1ccccc1)c1nc2c(S(=O)(=O)c3ccccc3)nnn2c2ccsc12,18%,nt,30%[46.1 µM],nt,nt,0.5%,-2%,nt
N#C[C@H]1[C@H](c2ccccc2)[C@](C#N)(C(=O)c2ccccc2)[C@@H]2C=Cc3ccccc3N21,25µM*,0%,nt,nt,nt,-3.9%,nt,32%
COc1ccc(-c2nc3sc(CCNC(=O)c4ccco4)c(C)n3n2)cc1,3%,nt,-4%[46.1 µM],nt,nt,-2.0%,19%,nt
c1ccc(CCCN2CCOCC2)cc1,nt,5%,?,-13%,?,nt,1%,4%
O=C(CCN1C(=O)S/C(=C\c2ccc(F)cc2)C1=O)Nc1ccc(C(=O)O)c(O)c1,nt,5%,nt,0%,nt,nt,41%[activator],-10%
COc1ccc(CCNC(=O)Cn2c(=O)n(-c3ccc(OC)c(OC)c3)c(=O)c3ccccc32)cc1OC,-7%,nt,-4%[46.1 µM],nt,5%[46.1 µM],0.1%,-10%,nt
Cc1ccc(NC(=S)C2=C(O)c3ccccc3N(C)S2(=O)=O)cc1,-11%,-14%,7%,-25%,-11%[46.1 µM],-16%,3%,-10%
COc1cccc(Cn2cccc(NC(=O)Nc3ccccc3C)c2=O)c1,nt,-1%,nt,0%,nt,nt,?,-2%
O=C(NCC(=O)N(CC1CCCO1)C(C(=O)NC1CCCCC1)c1ccc(F)cc1)c1ccco1 (stereo not given),-10%,-3%,-4%,-5%,?,-0.6%,20%,4%
O=C(CNS(=O)(=O)N1CCOCC1)N/N=C/c1cccnc1,nt,1%,?,5%,-4%[46.1 µM],nt,3%,-2%
COc1cc(/C=C(\C#N)c2nc3ccccc3n2C)cc(OC)c1O,nt,0%,-21%[46.1 µM],5%,?,nt,3%,nt
COc1ccc(N2CC(C(=O)N[C@@H](C)C(=O)N[C@H](CO)c3ccccc3)CC2=O)cc1 (stereo not given in full),nt,4%,nt,-11%,nt,nt,-10%,1%
O=C(C1CCCCC1)N1CCC(c2nc3c(nnn3Cc3c(F)cccc3Cl)c(=O)[nH]2)CC1,?,7%,?,-8%,1%,-7.7%,-19%,-8%
Cc1ccc(N(CC(=O)NC(C)c2ccccc2)S(=O)(=O)c2c(C)noc2C)cc1 (stereo not given),-28%,-3%,?,10%,?,0.4%,-1%&0%,32%
COc1ccc(-c2nc(CSCC(=O)N3CCc4ccccc43)c(C)o2)cc1OC,?,7%,-1%,15%,7%,8.9%,-4%,-11%
C/C(=N\NC(=O)c1ccc(C)cc1C)c1ccc2c(c1)Nc1ccccc1S2,?,-2%,?,-10%,-30%,-1.5%,?,23%
CCN(CC)C(=O)Cn1cnc2sc(C(=O)N3CCN(c4ccc(F)cc4)CC3)c(C)c2c1=O,nt,-6%,7%[46.1 µM],5%,3%[46.1 µM],nt,48%[activator],nt
O=C1Nc2c(c(=O)[nH]c(=O)n2-c2ccccc2)C1(NS(=O)(=O)c1ccc(Cl)cc1)C(F)(F)F (stereo not given),-6%,nt,7%[46.1 µM],nt,8%[46.1 µM],-6.7%,-5%,nt
Cc1cc(OC(C)C(=O)N(Cc2ccco2)C2CCS(=O)(=O)C2)cc(C)c1Cl (stereo not given),nt,0%,nt,3%,nt,nt,-20%,6%
Cn1cc(C(=O)c2ccc(Cl)cc2Cl)cc1C(=O)O,-4%,0%,22%,-6%,?,-0.1%,-2%,14%
CC(C)[C@H](NC(=O)c1ccco1)C(=O)OCC(=O)c1ccc(Br)s1,nt,1%,18%,1%,-1%,nt,22%,nt
CC1CC(C)CN(C(=O)C(C)N2CCN(S(=O)(=O)c3ccc(Br)s3)CC2)C1 (stereo not given),nt,-3%,?,1%,?,nt,?,nt
O=C(CN1CCOCC1)Nc1ccccc1,-6%,1%,18%,15%,14%,9.3%,nt,3%
Cc1ccc(S(=O)(=O)Cc2csc(N)n2)cc1,7%,-5%,2%,4%,0%,5.1%,11%,6%
CCOc1ccc2oc(=O)cc(CN3CCN(c4ccc(OC)cc4)CC3)c2c1,11%,nt,9%[46.1 µM],nt,3%[46.1 µM],1.0%,-26%,nt
COc1ccccc1CNC(=O)CCCn1c(=O)c2ccccc2n(CC(=O)NC2CCCC2)c1=O,-1%,2%,2%,-3%,-11%&-11%,3.7%,-20%,-4%
N#Cc1ccc(C(=O)OCC(=O)NC2CCCC2)cc1,nt,0%,nt,6%,nt,nt,-3%,0%
O=C(Cc1ccccc1)c1ccccc1C(=O)N1CCCCC1,nt,0%,1%,-3%,?,nt,44%[activator],-6%
CC(=O)N1c2ccc(S(=O)(=O)N3CCCC(C(=O)Nc4cccc(Cl)c4)C3)cc2CC1C (stereo not given),nt,4%,?,10%,?,nt,?,2%
O=C(CCCC(=O)OCC(Cl)=C(Cl)Cl)Nc1ccc(F)cc1,23%,-11%,6%,-8%,16%,-5.3%,3%,-22%
CC1CCC(NC(=O)CNC(=O)c2ccc3ccccc3c2)CC1 (stereo not given),nt,-2%,9%,-7%,3%,nt,29%,nt
N#CCC(=O)Nc1ccc(C(=O)OCC(=O)NCc2ccc3c(c2)OCO3)cc1,nt,3%,-13%,17%,24%,nt,4%,nt
O=C(Nc1ccc(C(F)(F)F)cc1)C(Cc1ccccc1)n1cccc1 (stereo not given),5%,nt,nt,nt,?,-14%,?,nt
Cc1ccc(C2C(C#N)=C(N)Oc3n[nH]c(-c4ccccc4)c32)o1 (stereo not given),-27%,-12%,-14%,-21%,-13%,-8.8%,-21%,13%
COCCn1c(SCC(=O)Nc2cc(C)on2)nc2cc(Cl)ccc2c1=O,nt,-1%,6%,-25%,5%,nt,0%,nt
O=C(COC(=O)Cc1ccsc1)NCc1ccccc1,-6%,23%,-7%,-9%,14%,-0.9%,-21%,-3%
Cc1nn(-c2ccccc2)c2[nH]c(=O)c(CNCCN3CCOCC3)cc12,-3%,7%,-2%,8%,7%,-1.1%,16%,-4%
S=c1[nH]ncn1/N=C/c1ccccn1,-2%,1%,12%,-5%,-11%,-0.1%,16%,1%
CC(=O)NS(=O)(=O)c1ccc(NC(=O)CSc2ccc(Cl)cc2)cc1,nt,0%,9%[46.1 µM],11%,9%[46.1 µM],nt,8%,2%
Cc1cccc(/N=C2/NC(=O)C(Cc3ccccc3)S2)n1 (stereo not given),nt,0%,nt,-10%,nt,nt,19%,2%
Cc1cccc(C)c1NC(=S)NCCCN1CCCC1=O,-12%,24%,-2%,22%,1%,11%,-10%,?
Cc1cccc(OCC(=O)Nc2nnc(S(=O)(=O)N3CCc4ccccc43)s2)c1,-1%,nt,28%[46.1 µM],nt,nt,-3.3%,-17%,nt
O=C(NCc1ccccc1)c1sc(=S)n2c1[nH]c(=O)c1ccccc12,-21%,16%,-19%,-6%,5%,-4.6%,-1%,-37%
Cc1ccc(S(=O)(=O)N2CCOCC2)cc1C(=O)Nc1nc(-c2ccccn2)cs1,nt,2%,-29%,23%,?,nt,?,nt
CN(NS(=O)(=O)c1ccccc1)C(=O)c1ccccc1,nt,nt,0%[46.1 µM],-4%,-6%[46.1 µM],nt,-15%,nt
C=CCNc1nc(Nc2cc(Cl)ccc2OC)nc(OC)n1,nt,-2%,19%[46.1 µM],-5%,2%[46.1 µM],nt,-14%,8%
O=C(Nc1ccc(C(=O)N2CCN(c3ccc(Cl)cc3)CC2)cc1)c1nsc2ccccc12,-10%,nt,30%[46.1 µM],nt,nt,-2.0%,?,nt
CCCNC(=O)c1ccccc1NC(=O)CSCc1ccc(OC)cc1,-8%,6%,3%,-2%,4%,4.8%,5%,5%
Cc1noc(NS(=O)(=O)c2ccc(NC(=O)c3ccc(F)cc3)cc2)c1C,nt,-1%,10%,21%,11%,nt,-15%,nt
CCOC(=O)c1[nH]c2c(c1C)C(=O)CC(c1ccc(F)cc1)C2 (stereo not given),?,0%,nt,6%,nt,-3.0%,0%,7%
COCCn1c(SCC(=O)NCc2ccc(F)cc2)nc2ccccc21,nt,0%,-2%[46.1 µM],1%,3%[46.1 µM],nt,10%,2%
Cc1ccnc(NC(=O)CCc2c[nH]c3ccccc23)c1,nt,-10%,-28%[46.1 µM],-7%,-2%[46.1 µM],nt,8%,-13%
O=S(NCc1ccco1)C12CC3CC(CC(C3)C1)C2 (stereo not given),2%,-3%,0%,4%,10%,-0.4%,nt,-10%
CCc1ccc(NS(=O)(=O)c2cc(OC)ccc2OC)cc1,6%,4%,-9%,10%,-29%,-5.7%,nt,-50%
